NPYLR7 agonist – agonists of mosquito NPYLR7 receptor, primary screen, cell-based, Aedes aegypti, calcium fluorescence, mosquito biting behavior; activation, % at 10 µM; Aedes aegypti neuropeptide Y-like receptor 7 (NPYLR7); hit rate 0.15% among 270,000; HEK293T NPYLR7/Galpha15, GCaMP6s calcium fluorescence; in the data active means activation above about 40%;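 further: 0% = vehicle and 100% = reference agonist at the receptor; some compounds past the cut are filed as inactive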
NPYLR7 agonist max-min – second read-out of NPYLR7 agonist, no call of its own (marks repeat the call); activation, %; measured here: Max-Min RFU normalised activation; some inactives read as strong as hits;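 span of the calcium signal over five minutes; 0% = vehicle and 100% = native peptide agonist; compound fluorescence can raise it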
Active calls of the source: *; & = joins results of further samples. Some of the compounds tested, so the mix of outcomes need not match the whole.

SMILES | NPYLR7 agonist | NPYLR7 agonist max-min
O=C(C(O)c1ccccc1)N1CCn2cncc2C1 (stereo unspecified) | -4 | -8
COc1ccc(-n2nnnc2CNC(=O)NCCCl)cc1 | 1 | 0
FC(F)(F)CCc1nc(C2CC2)n[nH]1 | 9 | 5
O=C(NCC12CC3CC(CC(C3)C1)C2)NC1CCCCC1 | 4 | 4
CN(C)CCOC1CCN(C(=O)CCCc2ccc(Cl)c(Cl)c2)C1 (stereo unspecified) | 2 | 3
CC(NC(=O)N1CCN(S(=O)(=O)N(C)C)CC1)c1cccc(Br)c1 (stereo unspecified) | 2 | 2
CCC(C)N(Cc1ccc(OC)c(OS(C)(=O)=O)c1)C(=O)c1cccc(F)c1 (stereo unspecified) | 17 | 21
O=C(CCc1cccnc1)Nc1cnc2n1CCCC2 | 12 | -5
CCCc1cc(N2CCOCC2)n2ncc(-c3ccccc3)c2n1 | 3 | 3
CCOc1ccc(NC(=O)C(=O)NCCN2CCN(Cc3ccc(F)cc3)CC2)cc1 | -2 | -3
O=C(Nc1ccccc1)N1CCN(c2cc(-n3cccn3)ncn2)CC1 | -7 | -11
CCCCN(C)c1c(C)nc2ccc(C(=O)N3CCN(c4ccccc4)CC3)cn12 | -6 | -10
O=C(Nc1cccc(S(=O)(=O)N2CCCC2)c1)c1ccc(Cl)o1 | -3 | -4
Cn1cnnc1Sc1ccc(CN2CCCC(CNC(=O)c3cc4ccccc4[nH]3)C2)o1 (stereo unspecified) | 9 | 2
OCc1ccc(-n2cccn2)cc1 | -2 | 12
CC1CC1C(=O)NCCC(=O)NCCN1CCCC2CCCCC21 (stereo unspecified) | -3 | -5
Cc1ocnc1C(=O)N1CCC(c2nn(C)c(=O)n2Cc2ccccc2)CC1 | 22 | 12
NC(Cc1nccn1C(F)F)c1ccccc1 (stereo unspecified) | -2 | -5
CCSc1nnc2c(n1)OC(CC)Nc1ccccc1-2 (stereo unspecified) | -6 | -13
CC(C)(C)c1cc2nc(-c3ccccc3)cc(C(=O)N3CCN(Cc4ccc5c(c4)OCO5)CC3)n2n1 | 12 | 13
O=C1CNC(=O)N1CCN1CCCC(C(F)(F)F)C1 (stereo unspecified) | 8 | 4
COc1cccc(Cc2nsc(N(C)CC(=O)N3CCN(c4ccc([N+](=O)[O-])cc4)CC3)n2)c1 | 11 | 13
O=C(COc1c(Cl)cc(Cl)cc1Cl)n1cc(Br)cn1 | 1 | -2
CCOC(=O)N1CCN(C(=O)c2cc(-c3ccccc3F)n3nc(C(C)(C)C)cc3n2)CC1 | -11&10 | -8&24
CC(C)N1CC2CCCC3(C1)C(=O)NC1(CCCCC1)N=C23 (stereo unspecified) | 6 | -1
COCC(=O)N(Cc1csc(COc2ccc(Cl)cc2)n1)C1CC1 | -2 | 11
CC1CNC(=O)CCN1C(=O)Cc1ccc(O)c(Cl)c1 (stereo unspecified) | -2 | -6
CN1CCN(NC(=O)CN2C(=O)S/C(=C/c3ccc(Cl)cc3)C2=O)CC1 | -2 | -8
O=C(CN1CN(c2ccccc2)C2(CCN(C(=O)Nc3cccc(Br)c3)CC2)C1=O)N1CCCC1 | 18 | 14
CC(=NNC(=O)Cc1cccs1)c1ccc(Cl)cc1Cl | -5 | -9
COC(=O)c1cccc(NS(=O)(=O)c2ccc(Cl)s2)c1 | 10 | 3
O=C(NCCc1ccccc1Cl)c1ccc2c(=O)n(-c3ccccc3)c(=O)[nH]c2c1 | -10 | -12
COc1cc(CO)cc(-c2cc(CO)cc(OC)c2OC)c1OC | 10 | 2
O=C(Cc1ccc(N2CCNC2=O)cc1)NCCN1Cc2ccccc2OC(c2ccccc2F)C1 (stereo unspecified) | 16 | 3
CC(NC(=O)c1cccc(Cl)c1Cl)C(=O)N(C)C1CCCC1 (stereo unspecified) | -24 | -25
c1ccc(CSc2cc(-c3ccccc3)c3ccccc3n2)cc1 | 4 | 2
CC1C(=O)N2CCCc3cc(NC(=O)C(=O)NC4CCCC4)cc1c32 (stereo unspecified) | 2 | -3
c1ccc(C2=NOC3C2C2C4C3C24)cc1 (stereo unspecified) | 4 | 6
Cc1cccc(C)c1NC(=O)Cn1c(-c2cccc(Cl)c2)csc1=O | 11 | 11
Cc1ccn2c(C(=O)N3C[C@@H]4C5CCC(CC5)[C@@H]4C3)c(C)nc2c1 | -1 | -2
CCN1CCN(C2=C(c3c(C)[nH]n(-c4ccc(OC)cc4)c3=O)C(=O)N(c3ccccc3F)C2=O)CC1 | 9 | 22
CC(=O)N1CCCn2nc(C(=O)NCc3nc4ccccc4[nH]3)cc2C1 | -2 | -4
O=CNc1ncc(-c2nc3ccccc3[nH]2)s1 | -5 | -10
CCOC(=O)C1=C(O)/C(=C\c2cccc(F)c2O)SC1=Nc1cccc(OC)c1 | -6 | 1
O=C1CCCCC1Sc1nnc(Nc2ccccc2)s1 (stereo unspecified) | 1&3 | 0&2
CCSc1nn(CC(=O)Nc2ccc(F)cc2)c(N)c1S(=O)(=O)c1ccc(C)cc1 | 1 | -6
CC(C)(C)n1nc(C2CC2)cc1C(=O)Nc1cccc2cn[nH]c12 | -5 | -7
O=C(CCc1c(-c2ccc(F)cc2)[nH]c2ccccc12)N1CCCC1 | 14 | 7
O=C(O)C(=O)CCc1cccs1 | 1 | 8
Clc1ccc2nnn(OCCOc3ccc(Br)cc3)c2c1 | -1 | -2
More entries:
SMILES | NPYLR7 agonist | NPYLR7 agonist max-min
Cc1noc(C)c1CN(C)C(=O)Cc1cccs1 | -13 | -14
COc1cc(/C=C2\SC(=S)N(C(Cc3ccccc3)C(=O)O)C2=O)ccc1O (stereo unspecified) | 4 | -7
C=CCNC(=O)C(C)SCc1ccn(-c2ccccc2)n1 (stereo unspecified) | 0 | -2
COc1ccccc1NC(=O)C(C)Nc1ccc(-n2cnnn2)cc1 (stereo unspecified) | 10 | 7
COCCNC(=O)c1cc2c(s1)CS(=O)(=O)C2 | 7 | 8
O=C(c1cncs1)N1CC(=O)N(C2CCCCC2)CC(OCc2ccccc2)C1 (stereo unspecified) | 8 | -4
CCN(CC)CCNc1nc2ccc(Cl)cc2[nH]1 | 6 | 8
CC(c1ccccc1)N1C(=O)C(=Cc2c(NCCCO)nc3ccccn3c2=O)SC1=S (stereo unspecified) | -2 | -2
CCSc1nnc(NC(=O)c2ccc(C)c(C)c2)s1 | -2 | -7
CN(Cc1cnc(-c2ccccn2)nc1)Cc1cccc2ncccc12 | -6 | -15
CN1CCN(c2cc(Cl)nc(SCC(=O)O)n2)CC1 | -4 | -12
CCOc1ccc(NC(=O)CSc2nc(=O)n(CCO)c3c2CCCC3)cc1 | -9 | -17
Cc1cccc(CS(=O)(=O)c2ncc(CNCCN(C)C)n2C2CCCCC2)c1 | 13 | 7
CN1CCN(c2cc(Oc3cccc(F)c3)ncn2)CC1 | -1 | 3
COc1cn(CC(=O)Nc2c(C)cc(C)cc2C)c(CSc2nc(C)cc(C)n2)cc1=O | -5 | -11
Cc1ccc(-c2ccc(=O)n(CCCNC(=O)COc3ccccc3F)n2)cc1 | -1 | -2
COCc1cc(C)nc(OCC(=O)N/N=C\c2ccc(Cl)cc2Cl)c1C#N | -4 | -9
CSc1nnc(CSc2nc(C)cc(C)n2)n1C | 5 | 2
COc1ccccc1CSc1nccnc1C#N | 2 | -2
Cc1csc2nc(CSc3ncn[nH]3)cc(=O)n12 | 0 | -2
NC(=O)c1ccc(NCc2nccn2CC(F)(F)F)cc1F | 5 | -9
COc1ccccc1CCNC(=O)c1cncn1-c1cccc(-c2cccc(OC(F)(F)F)c2)c1 | 2 | 0
CC(C)SC(NC(=O)OCc1ccccc1)C(=O)N1CCCCC1 (stereo unspecified) | -10 | -11
COc1cccc(C(=O)N2C(C(=O)N3CCOCC3)COC23CCC(C)CC3)c1 (stereo unspecified) | -2 | 9
O=C(NCc1cccs1)C1CC1 | 13 | 12
Cc1ccc(CN(Cc2ccc(C(O)(c3ccccc3)c3ccccc3)o2)C2CC2)o1 | 11 | 16
N#Cc1c(-n2ncnc2-c2ccc3c(c2)OCO3)sc2c1CCCC2 | 3 | 4
CC(=O)Nc1c2c(nn1CC(=O)NCc1ccccc1)CSC2 | -4 | 5
CN(Cc1csc(-c2cccs2)n1)Cc1ncccc1C(=O)O | -4 | -10
Cc1ccc(Sc2ccc(C3NCCc4[nH]cnc43)o2)cc1 (stereo unspecified) | 12 | 6

14 consecutive records already listed:
SMILES | NPYLR7 agonist | NPYLR7 agonist max-min
Cc1ccc(-c2ccc(=O)n(CCCNC(=O)COc3ccccc3F)n2)cc1 | -1 | -2
COCc1cc(C)nc(OCC(=O)N/N=C\c2ccc(Cl)cc2Cl)c1C#N | -4 | -9
CSc1nnc(CSc2nc(C)cc(C)n2)n1C | 5 | 2
COc1ccccc1CSc1nccnc1C#N | 2 | -2
Cc1csc2nc(CSc3ncn[nH]3)cc(=O)n12 | 0 | -2
NC(=O)c1ccc(NCc2nccn2CC(F)(F)F)cc1F | 5 | -9
COc1ccccc1CCNC(=O)c1cncn1-c1cccc(-c2cccc(OC(F)(F)F)c2)c1 | 2 | 0
CC(C)SC(NC(=O)OCc1ccccc1)C(=O)N1CCCCC1 (stereo unspecified) | -10 | -11
COc1cccc(C(=O)N2C(C(=O)N3CCOCC3)COC23CCC(C)CC3)c1 (stereo unspecified) | -2 | 9
O=C(NCc1cccs1)C1CC1 | 13 | 12
Cc1ccc(CN(Cc2ccc(C(O)(c3ccccc3)c3ccccc3)o2)C2CC2)o1 | 11 | 16
N#Cc1c(-n2ncnc2-c2ccc3c(c2)OCO3)sc2c1CCCC2 | 3 | 4
CC(=O)Nc1c2c(nn1CC(=O)NCc1ccccc1)CSC2 | -4 | 5
CN(Cc1csc(-c2cccs2)n1)Cc1ncccc1C(=O)O | -4 | -10

(next part)
SMILES | NPYLR7 agonist | NPYLR7 agonist max-min
COCC(=O)Nc1c2c(nn1CC(=O)NCc1ccco1)CSC2 | -2 | 7
O=C(NCC(=O)N1CCCC1)c1ccc(-c2ccc(F)cc2)cc1F | 8 | 4
CC(C)c1nc(CNc2nncc(-c3cccc(F)c3)n2)cs1 | 4 | 2
COc1ccc(CCCNC(=O)C2(C)Cc3c(-c4ccc(C(N)=O)cc4)ccnc3O2)cc1 (stereo unspecified) | -15 | -15
C=CCOc1ccc(Br)cc1/C=C(\C#N)c1nn(-c2ccccc2)c(N)c1C#N | -2 | -6
N#CC(=C(O)CSc1nc2ccccc2o1)c1nc2ccccc2[nH]1 | -2 | -3
CCCc1nc(N2CCCN(C(=O)c3ccccc3Br)CC2)c2c(C)nn(-c3ccccc3)c2n1 | 5 | 10
COCC(NC(=O)c1cccc(CC2CCNCC2)c1)c1ccnn1C (stereo unspecified) | -4 | -8
Cc1csc(C2NC(=O)c3c(Cl)cccc3N2)n1 (stereo unspecified) | -1 | -1
CC(=O)c1cn(C(C)C(=O)N2CCc3c(nc[nH]c3=O)C2)c2ccccc12 (stereo unspecified) | 18 | 12
C(=C\c1nc(-c2cccnc2)no1)/c1ccccc1 | 10 | 9
CCOC(=O)c1cccc(NC(=O)N[C@@H]2C[C@@H]3C[C@H]([C@H]2C)C3(C)C)c1 | -3 | -9
CC(C)(C)NC(=O)C1CC(=O)OC12CCOC(C)(C)C2 (stereo unspecified) | 20 | 10
COC(=O)c1ccc(CNc2ccc(-c3nc(C(C)C)no3)cn2)cc1 | 17 | 11
COc1ccc2[nH]c(C(=O)N3CCCC3c3nccs3)c(C)c2c1 (stereo unspecified) | 11 | 9
FC(F)(F)c1ccc(Cn2ccnc2CNC2CCCCC2)cc1 | -10 | -2
O=C(c1c(F)cccc1F)N(Cc1nc2cc(Cl)ccc2o1)C1CC1 | 5 | 5
Cc1ccc(OCc2ccc(-c3nc(C#N)c(NC4CC4)o3)o2)cc1 | -1 | 17
CCOc1nc(-c2ccc(Cl)c(Cl)c2)n(-c2ccc(NC(=O)c3cccc(OC)c3)cc2)n1 | 10 | 7
O=C(NC1CCCCC1)c1nnc2n1CCN(Cc1cccc(O)c1)C2 | 7 | 3
COc1cc(OC)cc(-c2nnc(SCc3ccc(Cl)cc3Cl)n2C2CCCCC2)c1 | 3 | 8
COc1ccc(OC)c(NC(=O)Cn2c(=O)n(Cc3ccco3)c(=O)c3sc4ccccc4c32)c1 | 2 | -5
O=C(Nc1nn(Cc2c(F)cccc2Cl)cc1Br)C1CCCO1 (stereo unspecified) | 0 | -2
CCOC(CC)C(=O)C(C#N)C(=O)Nc1ccc(Cl)cc1Cl (stereo unspecified) | 13 | 11
CC1CCN(S(=O)(=O)c2ccc3[nH]cc(C(=O)O)c(=O)c3c2)CC1 | 3 | 0
CC(=O)OCc1ccc(/C=C2\C(=O)N(c3ccc(Cl)cc3C)C(=S)N2C)o1 | 25 | 26
Cc1ccc(-c2cc(=O)c3cc(Cl)cc(Cl)c3o2)cc1 | 3 | 9
CC(Oc1ccc(C23CC4CC(CC(C4)C2)C3)cc1)C(=O)OCC(N)=O (stereo unspecified) | 4 | 0
OCc1csc(COc2ccc(Cl)cc2CNCCN2CCCCC2)n1 | 5 | 12
COCCNC(=O)C(NC(=O)c1ccc(OC)cc1)C1CCN(C(=O)Cc2ccccc2)CC1 (stereo unspecified) | 9 | 11
O=C(NCc1ccco1)C1CCN(Cc2csc3c(F)cccc23)CC1 | 11 | -3
NC(=O)C1CCN(c2nc3cc(C(F)(F)F)ccc3s2)C1 (stereo unspecified) | -16 | -21
COc1ccc(-n2c(Cc3cccnc3)n[nH]c2=O)c(C)c1 | 3 | 2
CC(CC#N)N(C)C(=O)c1cnc(OCC(F)(F)F)c(Cl)c1 (stereo unspecified) | 3 | 0
O=S(=O)(Nc1ccccc1Oc1ccccc1)c1cccnc1Cl | -4 | -5
CCOCCCn1c(SCc2c(F)c(F)c(F)c(F)c2F)nc2cc(S(=O)(=O)N3CCOCC3)ccc21 | 14 | 5
CC(=O)Nc1ccc2c(c1)CCCC2=O | 4 | 4
CCOC(=O)C1=C(C)NC(C)=C(C(=O)OCC)C1 | 7 | 1
